Rango release inh = prevents RanGTP from dissociating the Rango-importin beta complex. O95149+P62826. Biochemical FRET Rango-importin beta, RanGTP-induced dissociation. Potency, µM (series often up to 46.1 µM), for the others: at the highest dose activity change, negative = inhibition. actives 0.071% (n = 340,000). AID 540253; active means falling FRET ratio curve, often poorly fitted, with flat reads before Ran was added; inconclusive means other falling curves, or compound fluorescence or quenching; inactive means flat or rising ratio curve;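 also: potency is read from the fitted curve at half-maximal effect; % of control where 0% means no effect; nearly all actives have a fitted effect of over 45% in size; -100% = wells without RanGTP and RCC1; the record marks most hits as doubtful in a second field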
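Rango/importin beta premix (0.1/0.25 uM final), PBS + 1 mM DTT + 0.02% Tween-20 + 0.1% BSA; cpd 5 min RT; FRET pre-read; + RanGTP-RCC1 (0.6 uM Ran, 2 mM GTP, 0.2 uM RCC1); 45 min RT; FRET post-read, ex 430, em 486/530 nm.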
Rango complex inh = inhibitors of Rango-importin beta complex formation; Potency, µM (doses to about 92.2 µM), for the others: at the top dose inhibition of complex formation; actives 0.031% (n = 340,000); AID 540263; Q14974; Rango CFP/YFP FRET sensor + importin beta, 45 min; active = rising FRET ratio curve, often small or poorly fitted; inconclusive = mostly compound fluorescence or quenching in the first reads; inactive = flat curves in all reads;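 also: potency is read from the fitted curve at half-maximal effect; 0% = DMSO wells and 100% = buffer wells lacking importin beta; nearly all actives have a fitted effect of over 15% in size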
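Inhibition scored from the CFP 486 nm/YFP 530 nm FRET ratio 45 min after adding 0.125 microM importin beta to 50 nM Rango biosensor preincubated 5 min with compound (room temperature, PBS with DTT, Tween-20, BSA). No-importin wells as positive control.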
GLA inh pH 4.5 = alpha-galactosidase A (human) inhibition, pH 4.5; P06280; purified enzyme, 4-MU-alpha-Gal fluorescence, pH 4.5; activity change, negative = inhibition, % at 105 µM; 230,000 tested, under 10 active; inconclusive = small, poorly fitted or top-dose-only inhibition, or a rising curve; inactive = flat fitted curve, though single readings scatter; no compound was filed as active;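 also: 0% = full activity with enzyme and -100% = basal without enzyme; dose as in the result columns while the protocol names 77 µM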
Target sequence (P06280 whole entry, looked up): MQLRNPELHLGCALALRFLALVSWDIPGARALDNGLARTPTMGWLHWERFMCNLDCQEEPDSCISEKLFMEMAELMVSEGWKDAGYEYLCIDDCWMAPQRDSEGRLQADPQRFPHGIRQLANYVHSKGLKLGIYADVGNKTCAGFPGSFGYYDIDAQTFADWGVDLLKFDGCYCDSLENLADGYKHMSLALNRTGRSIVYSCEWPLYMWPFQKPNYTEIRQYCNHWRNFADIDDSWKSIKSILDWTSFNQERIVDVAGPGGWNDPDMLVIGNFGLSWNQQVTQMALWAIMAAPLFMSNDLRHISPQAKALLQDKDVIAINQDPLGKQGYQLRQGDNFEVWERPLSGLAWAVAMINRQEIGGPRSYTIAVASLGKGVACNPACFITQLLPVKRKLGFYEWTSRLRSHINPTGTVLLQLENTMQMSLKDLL
miR-21 reporter = miR-21 reporter, rising signal; 340,000 tested, under 10 active; Potency, µM (highest dose often 38.3 µM), without a hit: top-dose reporter change, positive = more light; HeLa miR-21 FLuc reporter, luciferase, 48 h; AID 2288; active = well fitted rising curve with a large enough effect; inconclusive = small, poorly fitted or top-dose-only effect; inactive = no such curve, though single readings can be large or run the other way;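 also: % of control where 0% means no effect; miR-21 action dims this reporter so a rising signal means less miR-21 action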
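Compounds were titrated across several concentrations (up to approximately 40 uM) and incubated 48 hours with HeLa miR-21-FLuc reporter cells (miR-21 target sequence downstream of FLuc, endogenous miR-21). Readout was firefly luciferase luminescence after lytic detection reagent.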
Active calls of the source: *; u = inconclusive; x = no result given; & = joins results of further samples; [ ] = remark or other dose.

No.	Molecule	Rango release inh	Rango complex inh	GLA inh pH 4.5	miR-21 reporter
1	CC(=O)Nc1ccc(C(=O)CN2C(=O)CSC2=O)cc1	-4%	u	x	3%
2	O=C1c2ccccc2[C@@H]2C[C@@H](O)[C@H](Nc3ccccc3Cl)CCN12	-15%	2.5%	x	x
3	Cc1ccc(CSC2=NCCN2S(=O)(=O)c2ccc(F)cc2)cc1	12%	0.6%	x	-5%
4	COCCCN(C(=O)Nc1cccc(Cl)c1)C(C)c1ccccn1 (stereo not given)	4%	4.8%	2	-11%
5	CC(C)(C)c1nc2scc(-c3ccc(Br)cc3)c2c(=O)o1	9%	6.3%	3	17%
6	CC(Sc1nnc(-c2ccco2)n1C)C(=O)Nc1nccs1 (stereo not given)	3%	1.6%	x	x
7	Cc1ccc(C(=O)N2CCCCC2)cc1S(=O)(=O)N1CCCCCC1	18%	-0.2%	x	-11%
8	Cn1nc(C(C)(C)C)cc1NC(=O)Nc1ccc(Cl)cc1	9%	-0.9%	-5	-3%
9	COc1ccc(NC(=S)Nc2cc(C)[nH]n2)cc1Cl	6%	-1.6%	-4	-69%
10	O=[N+]([O-])c1ccc2[nH]cc(S(=O)(=O)N3CCN(c4cccc(Cl)c4)CC3)c2c1	0%	4.6%	x	27%
11	CCOc1ccc(C2=C(C=C(C#N)C#N)C(c3ccccc3)c3ccccc3O2)cc1 (stereo not given)	-3%	5.4%	1	-7%
12	COc1cccc(/C=N/n2c(C3CCCCC3)n[nH]c2=S)c1O	u	u	x	1%
13	O=C(COC(=O)c1cc([N+](=O)[O-])ccc1NCc1ccccc1)NC1CCCCC1	1%	0.1%	-1	-5%
14	CCCCC1=CC2=C(c3ccco3)C(=O)C(C)(OC(=O)c3ccc(OC)cc3)C(=O)C2=CN1Cc1ccccc1 (stereo not given)	u	u	8&-8	1%
15	CC/C(=C(\c1ccccc1)c1ccc(OCCN(C)C)cc1)c1ccccc1	-14%&0%	6.5%&14%	1&-2&-2&-3	x
16	COc1ccc(C)cc1NC(=O)CSc1nnc(COc2ccc(C)cc2)n1Cc1ccco1	-15%	-3.6%	-7	10%
17	O=C(c1ccc(CN2CCOCC2)cc1)N1CCN(c2cccc(Cl)c2)CC1	4%	5.0%	1	0%
18	Cc1cccc2cc(CN(Cc3cccs3)C(=S)NCc3ccco3)c(=O)[nH]c12	1%	-0.5%	-7	9%
19	CCCCNC(=O)O[C@@H]1C[C@@H]2CCN3C(=O)CCC[C@H]([C@H]1CC)[C@H]23	-10%	5.2%	x	0%
20	O=C(/C=C/c1ccc(Cl)cc1Cl)NCc1ccco1	1%	2.6%	4	-49%
21	Cc1c(NC(=O)OCCNC(=O)COc2c(Cl)cccc2Cl)sc(=S)n1C	9%	-2.7%	-20	-11%
22	CCOC(=O)N1CCC(NC(=O)Cn2ncc3ccccc32)CC1	-4%	-0.2%	-8	-1%
23	CNC(=O)CSc1nnc(-c2ccccn2)n1Cc1ccco1	1%	-2.7%	5	-1%
24	CSc1nc2ccccc2cc1/C=C(\C#N)c1ccc(Cl)cc1Cl	3%	-2.6%	-10	0%
25	O=C(Nc1ccccc1F)N(CCCN1CCOCC1)Cc1cc2cc3c(cc2[nH]c1=O)OCCO3	4%	-0.5%	6	-7%
26	CCC(C)(C)NC(=O)CN(Cc1ccc2c(c1)OCO2)C(=O)CCC(=O)Nc1cc(C)ccn1	10%	-1.1%	x	-3%
27	CC1CCc2c(sc(NC(=O)c3noc4c3CCCC4)c2C(N)=O)C1 (stereo not given)	-4%	-4.8%	x	x
28	Cc1ccc2c(c1)nnn2C1CCN(C(=O)NC23CC4CC(CC(C4)C2)C3)CC1	x	x	-14	0%
29	Cc1ccc(NC(=O)CCC(=O)N2CCC(c3ccccc3)=N2)cc1S(=O)(=O)N1CCCCC1	18%	-0.9%	x	x
30	Cc1ccc(CNC(=O)CCS(=O)(=O)c2cc3c(cc2Cl)NC(=O)CO3)cc1	12%	0.2%	x	-2%&0%
31	CN(C)CCNC(=O)c1ccccc1-c1cc2ccccc2c(=O)o1	17%	1.6%	x	1%
32	COc1ccccc1NC(=O)/C=C/C(N)=O	-15%	-4.1%	-18	u
33	COC(=O)CSc1nnc(CNC(=O)Cc2ccccc2)n1C	6%	-0.1%	2	0%
34	Cc1ccc(NC(=S)N(CCCN2CCC(C)CC2)Cc2ccco2)cc1	-9%	-2.4%	-12	5%
35	COC(=O)c1[nH]c2cccc(Cl)c2c1NC(=O)CN1CCCCC1C (stereo not given)	-1%	-0.7%	4	-7%
36	Cc1ccc(S(=O)(=O)N2CCCCC2)cc1C(=O)Nc1ccc2cn[nH]c2c1	2%	0.8%	-4	0%
37	COc1ccccc1NC(=O)CSc1nnc(C)n1CCc1ccccc1	9%	-1.2%	-2	1%
38	O=C(c1ccccn1)N1CC=C(c2ccccc2)CC1	10%	-4.6%	1[21.1 µM]	-13%
39	CCN(CC)CCCNC(=O)CCc1ccccc1	-17%	-0.5%	3	1%
40	CCOc1ccc(Cl)cc1Nc1nc(NCCO)nc(N2CCCC2)n1	-9%	6.3%	x	x
41	O=C(CCNS(=O)(=O)c1ccc(Cl)cc1)OCC(=O)c1ccc[nH]1	-11%	0.2%	2	0%
42	COc1ccc(S(=O)(=O)NC(C)C(=O)Nc2ccc3c(c2)OCCO3)cc1OC (stereo not given)	-7%	-0.3%	x	9%
43	Fc1ccc(-c2cc3nc4c(c(N5CCOCC5)n3n2)CCCC4)cc1	2%	2.5%	-7	-52%
44	O=C(c1ccc(Br)cc1)c1coc2ccc(O)cc12	2%	1.3%	x	x
45	Cc1cccc(OC(C)C(=O)Nc2nccs2)c1 (stereo not given)	6%	2.9%	x	-9%
46	O=C(Nc1ccc(F)cc1)c1cc(-c2ccncc2)nc2c(Cl)cccc12	-6%	0.8%	x	0%
47	CCOC(=O)c1nnn(-c2nonc2N)c1COc1c(C=O)cccc1OC	28%	2.4%	-3	9%
48	CCCCCC(=O)OC(CN1CCCCCC1)CN1CCCC1=O (stereo not given)	11%	2.9%	-14	0%
49	COc1ccccc1CCc1nnc(CCC(=O)NCCOc2cccnc2)o1	1%	-0.7%	4	-1%
50	O=C(Cn1nnc(-c2ccccc2)n1)NNC(=O)c1ccco1	0%	5.3%	-14	-2%

(cont.)
No.	Molecule	Rango release inh	Rango complex inh	GLA inh pH 4.5	miR-21 reporter
51	N#C/C(=C/c1ccccc1)C(=O)NCc1ccccc1	3%	1.4%	x	-5%
52	COC(=O)CC1C(=O)NCCN1C(=O)OC(C)(C)C (stereo not given)	1%	-0.9%	-1	0%
53	COc1cc(CNC(=O)CCCC(=O)c2ccccc2)cc(OC)c1OC	12%	1.8%	x	5%
54	O=C(C1CC1)N1CCN=C1SCc1ccccc1	37%	2.9%	-1	-4%
55	COc1ccc(/C=C2\SC(N3CCc4ccccc4C3)=NC2=O)cc1	11%	u	-11	-7%
56	COC(=O)C1=C(C)OC(N)=C(C#N)C1c1ccsc1 (stereo not given)	2%	-0.7%	2	0%
57	O=C(Nc1cccc(O)c1)c1cc(S(=O)(=O)N2CCCC2)ccc1Cl	10%	-0.9%	1	16%
58	O=C(CNC(=O)OCc1ccccc1)Oc1cc2oc(=O)cc(-c3ccccc3)c2cc1Cl	u	u	-23	13%
59	CN(C)CCN(C(=O)c1ccc(S(=O)(=O)N(C)CC2CCCO2)cc1)c1nc2cc3c(cc2s1)OCO3 (stereo not given)	0%	-0.8%	x	-16%
60	O=C(Cc1cccs1)NCc1cn2ccccc2n1	24%	-0.1%	-10	-2%
61	CC(=O)c1cc(CN2C(=O)CCC2=O)cs1	12%	-5.1%	-3	0%
62	COC(=O)c1ccccc1NC(=O)CSc1n[nH]c(C)n1	3%	-1.5%	4	-2%&2%
63	Cn1c(=O)n(C)c2cc(/C=N/NC(=O)c3cccc(Br)c3)ccc21	11%	1.2%	2	-2%
64	O=S(=O)(NCc1cccnc1)c1ccc(Cl)cc1	16%	1.4%	x	2%
65	O=C(c1ccc(Br)cc1)N1CCC2(CC1)NCCc1[nH]cnc12	-26%	0.9%	x	0%
66	CC(C)(C)c1ccc(C2(C)NC(=O)N(CC(=O)NC3CCS(=O)(=O)C3)C2=O)cc1 (stereo not given)	18%	4.0%	x	x
67	COc1cc(OC)cc(-n2nnnc2SCC(=O)N2CCCc3ccccc32)c1	14%	-2.5%	-5	-2%
68	NC(=O)C(C(=O)/C=C/c1ccc(Cl)cc1)=C1SCCS1	11%	-3.3%	-1	14%
69	COc1ccc(NC2CCCN(C(=O)CSc3ccccn3)C2)cc1OC (stereo not given)	u	u	x	-1%
70	C/C=C/c1ccc(OCC(O)CN(C)Cc2ccc(SC)cc2)c(OC)c1 (stereo not given)	-2%	-1.5%	x	3%
71	C/C(=N\NC(=O)c1ccc(NS(=O)(=O)c2cccs2)cc1)c1ccccc1	1%	-0.7%	-2	-17%
72	CCCOc1ccc(C(=O)CCNc2cccc(Cl)c2)cc1	1%	3.6%	6	-23%
73	COc1ccc2[nH]c3c(c2c1)CCN1C(=O)C(CC(=O)NCC24CC5CC(CC(C5)C2)C4)C[C@H](C(=O)N2CCCCC2)[C@@]31C (stereo not given in full)	-2%	0.1%	x	x
74	Cc1cc(=O)n2[nH]cnc2n1	-8%	-4.3%	8	-3%
75	OC(CN(c1ccccc1)c1ccccc1)Cn1cnc2ccccc21 (stereo not given)	9%	1.8%	-8	21%
76	COC(=O)CSc1nc(N)c2c3c(sc2n1)CCCC3	-1%	0.8%	1	-18%
77	O=C(Oc1coc(CSc2ncccn2)cc1=O)c1ccccc1[N+](=O)[O-]	-15%	-2.2%	13	-7%
78	O=c1c(-c2ccccc2)[n+]([O-])c2ccccc2n1O	u	u	-5	1%
79	CN(C)S(=O)(=O)c1ccc(NC(=O)CN2CCc3ccccc32)cc1	-10%	3.5%	5	0%
80	CCN(CC)C(=O)Oc1ccc(Br)cc1C(=O)Nc1ccc(F)cc1F	25%	1.9%	-7	-6%
81	Cc1ccn2cc(-c3cccc(S(=O)(=O)N4CCCC4)c3)nc2c1	2%	6.9%	x	-2%
82	Cc1ccc(NC(=O)CSCc2n[nH]c(=O)[nH]2)c(Br)c1	-18%	0.8%	1	-15%
83	CCn1c2ccccc2c2cc(NC(=O)CSc3nnnn3-c3ccccc3)ccc21	-17%	0.0%	4	1%
84	CC1=CC2=NC(=O)/C(=C\c3cn(C)c4ccccc34)C(=N)N2O1	u	u	2[21.1 µM]	0%
85	CN(C)S(=O)(=O)c1ccc(N2CCCC2)c(C(=O)NCC2CCCCC2)c1	-4%	0.6%	8	4%
86	NC(=O)c1ccsc1NC(=O)CS(=O)(=O)c1ccc(Cl)cc1	2%	-1.5%	x	-3%
87	O=C(Nc1ccccc1)Nc1nnc(COc2ccccc2F)s1	-8%	-1.6%	1	-8%
88	COc1ccccc1NC(=S)NC(C)C(c1cccs1)N1CCOCC1 (stereo not given)	2%	0.5%	8	1%
89	CCOCCn1c(C(C)C)nc2ccccc21	-12%	0.9%	-5	-4%
90	COc1ccc(C2N(c3ccc(Cl)cc3)C(=O)C3CCCN32)cc1 (stereo not given)	-10%	-2.6%	-17	-27%
91	O=C1NC(=O)N(c2ccc(Cl)cc2)C(=O)/C1=C/c1ccc2c(c1)CCN2Cc1ccccc1Cl	-7%	-0.5%	x	x
92	O=C(NC1CCCc2ccccc21)C1CCN(S(=O)(=O)c2cccc(C(F)(F)F)c2)CC1 (stereo not given)	0%	-1.2%	-8	24%
93	O=C(CSc1nnc(SCc2ccc(Cl)cc2)s1)N/N=C/c1ccc(C(=O)O)cc1	u	0.7%	4	0%
94	COc1cc(C(=O)NCCOc2ccc(C)c(C)c2)cc(OC)c1OC	5%	0.6%	x	3%
95	CN(C)c1ccnc2sc(C(=O)NCc3ccccc3)c(N)c12	-11%	-4.4%	-2	-47%
96	CSc1cccc(NC(=O)CN(c2ccccc2)S(=O)(=O)N(C)C)c1	1%	4.8%	3	u
97	COc1ccc(C(CNC(=O)COc2ccc(-c3ccccc3)cc2)N2CCOCC2)cc1 (stereo not given)	0%	-0.5%	-11	u

An excerpt (hit frequency here may not be typical).
